Rango release inh = inhibitors of RanGTP-induced Rango-importin beta complex dissociation. Biochemical FRET Rango-importin beta, RanGTP-induced dissociation. 340,000 compounds, 0.071% hits. AID 540253. O95149+P62826. Potency, µM (series often up to 46.1 µM), for the others: top-dose activity change, negative = inhibition; active means falling FRET ratio curve, often poorly fitted, with flat reads before Ran was added; inconclusive means other falling curves, or compound fluorescence or quenching; inactive means flat or rising ratio curve;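 note: potency is the fitted concentration of half-maximal effect; % of control where 0% means no effect; nearly all actives have a fitted effect of over 45% in size; -100% = wells without RanGTP and RCC1; the record marks most hits as doubtful in a second field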
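Recombinant Rango FRET biosensor (EYFP–snurportin 1 IBB–cerulean CFP10) at 0.1 uM premixed with 0.25 uM importin beta in PBS, 1 mM DTT, 0.02% Tween-20, 0.1% BSA. Compound added 5 min; RanGTP-RCC1 (0.6 uM Ran, 2 mM GTP, 0.2 uM RCC1) then triggers release, read at 45 min.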
GLA inh pH 4.5 = alpha-galactosidase A (human) inhibition, pH 4.5. P06280. 230,000 tested, under 10 active. activity change, negative = inhibition, % at 105 µM. purified enzyme, 4-MU-alpha-Gal fluorescence, pH 4.5; inconclusive = small, poorly fitted or top-dose-only inhibition, or a rising curve; inactive = flat fitted curve, though single readings scatter; no compound was filed as active;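 note: 0% = full activity with enzyme and -100% = basal without enzyme; dose as in the result columns while the protocol names 77 µM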
Target sequence (P06280 whole entry, looked up): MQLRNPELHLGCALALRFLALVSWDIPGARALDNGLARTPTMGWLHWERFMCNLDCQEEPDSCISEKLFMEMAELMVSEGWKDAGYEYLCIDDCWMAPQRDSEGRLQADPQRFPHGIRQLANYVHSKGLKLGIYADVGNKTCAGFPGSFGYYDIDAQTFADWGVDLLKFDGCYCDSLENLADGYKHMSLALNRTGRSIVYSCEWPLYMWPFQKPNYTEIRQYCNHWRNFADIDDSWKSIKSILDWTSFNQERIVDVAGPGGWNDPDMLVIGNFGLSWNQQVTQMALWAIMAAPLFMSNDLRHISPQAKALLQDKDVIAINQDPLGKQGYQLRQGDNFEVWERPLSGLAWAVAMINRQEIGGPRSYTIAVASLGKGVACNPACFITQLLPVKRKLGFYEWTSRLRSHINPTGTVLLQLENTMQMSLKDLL
Rango-impB inh = Rango-importin beta binding inhibition | Q14974 | Rango CFP/YFP FRET sensor + importin beta, 45 min | Potency, µM (doses to about 92.2 µM), without a hit: at the top dose inhibition of complex formation | 340,000 compounds, 0.031% hits; active = rising FRET ratio curve, often small or poorly fitted; inconclusive = mostly compound fluorescence or quenching in the first reads; inactive = flat curves in all reads;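 note: potency is the fitted concentration of half-maximal effect; 0% = DMSO wells and 100% = buffer wells lacking importin beta; nearly all actives have a fitted effect of over 15% in size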
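FRET biosensor Rango (snurportin 1 IBB between N-terminal EYFP and C-terminal Cerulean), 50 nM in PBS/1 mM DTT/0.02% Tween-20/0.1% BSA, preincubated 5 min RT with compound; 0.125 microM importin beta added, 45 min RT, CFP/YFP FRET ratio read.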
miR-21 FLuc = raises the signal of a miR-21 reporter; 340,000 tested, under 10 active; Potency, µM (series often up to 38.3 µM), for inactives: at the top dose reporter change, positive = more light; AID 2288; HeLa miR-21 FLuc reporter, luciferase, 48 h; active = well fitted rising curve with a large enough effect; inconclusive = small, poorly fitted or top-dose-only effect; inactive = no such curve, though single readings can be large or run the other way;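 note: % of control where 0% means no effect; miR-21 action dims this reporter so a rising signal means less miR-21 action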
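Luminescence from a firefly luciferase reporter carrying a miR-21 binding site downstream, stably expressed under a CMV promoter in HeLa cells that make miR-21 endogenously, reports miRNA modulation after 48 h compound exposure up to approximately 40uM final.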
An asterisk follows results filed as active; ? = inconclusive; . = no result given. These rows are one share of the data, so the mix of outcomes need not match the whole.

SMILES	Rango release inh	GLA inh pH 4.5	Rango-impB inh	miR-21 FLuc
CCCOC(=O)CN1C(=O)c2ccc(C(=O)OCCC)cc2C1=O	-7.6%	-2.6	-0.3%	-1.9%
CCN1CCN(C(=O)c2ccc(CS(=O)(=O)Cc3ccccc3F)o2)CC1	-6.5%	2.4	-5.1%	-14.6%
CS(=O)(=O)N(Cc1nnc(-c2cccs2)o1)c1ccc(Cl)cc1F	15.2%	-1.7	0.3%	-17.6%
Cc1cccnc1NC(=O)Nc1cccc2ccccc12	7.2%	2.1	5.3%	-1.4%
NS(=O)(=O)c1ccc(CCNS(=O)(=O)c2cccc(C(=O)O)c2)cc1	-10.3%	1.7	4.8%	-8.4%
Cc1cccc(NC(=S)NC2CC3CCCC(C2)N3CC(C)C)c1 (centres undefined)	1.4%	-12.9	1.3%	-10.6%
CCCN(C(=O)C(NC(=O)c1ccccc1)C(C)C)c1c(N)n(Cc2ccccc2)c(=O)[nH]c1=O (centres undefined)	4.4%	.	-1.4%	.
COc1ccc(OC)c(S(=O)(=O)n2ccc(C)n2)c1	-12.1%	.	-4.3%	-1.7%
O=c1[nH]cc(NCCNc2ncc(C(F)(F)F)cc2Cl)c(=O)[nH]1	1.2%	-4.2	-3.0%	-13.8%
CC(C)c1cc(CNC(=O)CCc2nnc(CCCc3ccccc3)o2)on1	-13.2%	3.6	-0.9%	-43.8%
CCN(CC(=O)Nc1c(F)cccc1F)C(=O)c1cccc(S(=O)(=O)N2CCN(c3ccccc3)CC2)c1	-7.5%	.	1.9%	15.7%
Cc1cccc(C(=O)N[C@H](C(=O)Nc2ccc(S(=O)(=O)NC3=NCCCCC3)cc2)C(C)C)c1	3.3%	-6.7	-1.9%	1.1%
Cc1ccc2cc3c(NC(=O)c4ccco4)nn(C)c3nc2c1	?	2.2	?	11.6%
COCCNC(=O)c1cccc(OC2CCN(C(C)COc3ccccc3)CC2)c1 (centres undefined)	-5.2%	.	?	8.9%
CCC(=O)N(CCC1(C(C)C)CCOC(C)(C)C1)Cc1ccco1 (centres undefined)	-14.5%	-14.9	?	0.5%
Cc1cccc(C(=O)N(Cc2ccco2)c2c(N)n(Cc3ccccc3)c(=O)[nH]c2=O)c1	8.2%	.	-3.8%	.
COc1ccc(NC(=O)NNC(=O)COc2ccc3ccccc3c2)cc1	-1.3%	.	-0.6%	0.5%
Cc1ccc(Sc2ccc(/C=N/O)cc2[N+](=O)[O-])cc1	-2.6%	-4.8	-4.6%	-3.0%
FC(F)(F)c1cccc(Cc2noc(CN3CCC(N4CCCCC4)CC3)n2)c1	0.0%	-0.1	-1.7%	-2.2%
Cc1ccc(NC(=O)CSc2nnnn2C2CC2)cc1S(=O)(=O)N1CCOCC1	7.6%	.	0.3%	.
Cc1ccc(S(=O)(=O)NNC(=O)c2ccc(O)cc2)cc1	5.7%	-0.4	-0.3%	-2.3%
CCn1nc(C(=O)OCC(=O)c2ccc(F)cc2)c2ccccc2c1=O	-6.0%	-5.2	-0.1%	-0.1%
Cn1c(N)c(C(=O)N/N=C/c2ccccc2)sc1=S	-12.8%	-5.4	-1.4%	-13.3%
CCOC(=O)c1c2c3c(cccc3[nH]c1=O)C(=O)c1ccccc1-2	-15.8%	-24.0	4.5%	-4.7%
COc1ccc(C(=O)Cn2cc([N+](=O)[O-])nc2C)cc1	-3.1%	.	-0.3%	-0.6%
Cc1ccc(S(=O)(=O)C2(S(=O)(=O)c3ccc(C)cc3)CC2)cc1	19.0%	-6.7	4.0%	7.1%
Nn1c(SCC(=O)NCCC2=CCCCC2)nnc1-c1cccnc1	-5.4%	.	4.3%	.
COc1ccccc1NC(=O)CSc1ccc2nnc(-c3ccncc3)n2n1	12.7%	4.9	-4.8%	-10.9%
Clc1ccc2c(N/N=C/c3ccccc3Br)ccnc2c1	-23.9%	-5.7	1.0%	-5.3%
COc1ccc(C(=O)Nc2cc(Cl)ccc2OC(=O)c2ccc(OC)cc2)cc1	13.0%	-9.0	1.2%	-28.5%

Retrieved one by one from the list above, 6 records:
SMILES	Rango release inh	GLA inh pH 4.5	Rango-impB inh	miR-21 FLuc
CC(C)c1cc(CNC(=O)CCc2nnc(CCCc3ccccc3)o2)on1	-13.2%	3.6	-0.9%	-43.8%
NS(=O)(=O)c1ccc(CCNS(=O)(=O)c2cccc(C(=O)O)c2)cc1	-10.3%	1.7	4.8%	-8.4%
Cc1ccc(S(=O)(=O)C2(S(=O)(=O)c3ccc(C)cc3)CC2)cc1	19.0%	-6.7	4.0%	7.1%
CCCN(C(=O)C(NC(=O)c1ccccc1)C(C)C)c1c(N)n(Cc2ccccc2)c(=O)[nH]c1=O (centres undefined)	4.4%	.	-1.4%	.
CS(=O)(=O)N(Cc1nnc(-c2cccs2)o1)c1ccc(Cl)cc1F	15.2%	-1.7	0.3%	-17.6%
COCCNC(=O)c1cccc(OC2CCN(C(C)COc3ccccc3)CC2)c1 (centres undefined)	-5.2%	.	?	8.9%

Next compounds follow.
SMILES	Rango release inh	GLA inh pH 4.5	Rango-impB inh	miR-21 FLuc
COc1ccccc1Oc1ccccc1[N+](=O)[O-]	-2.7%	-5.2	-0.1%	-12.7%
COc1ccc(S(=O)(=O)N2CCC3CC2c2cc(N4CCOCC4)ccc23)cc1 (centres undefined)	-5.2%	.	-0.2%	.
O=C(CNC(=O)c1ccccc1Cl)NCC(c1cccs1)N1CCOCC1 (centres undefined)	-0.5%	.	6.0%	.
COc1ccc(Cc2nnc(SCc3nc4ccccc4c(=O)[nH]3)o2)cc1	0.7%	-1.4	-0.2%	-0.4%
O=C(O)c1ccc(/C=C/c2nc3ccccc3c(=O)[nH]2)cc1	25.1%	.	2.7%	-1.9%
O=[N+]([O-])c1ccc(O)c(C=Nc2cccc3ncccc23)c1	-15.3%	-3.8	?	-4.5%
COc1ccc(-c2nn(CCC#N)cc2C=C(C#N)C#N)cc1	8.7%	3.4	0.6%	-7.0%
C/C=C/C=C/C(=O)Nc1nccs1	-11.7%	-2.2	-1.5%	-21.6%
COc1ccc(NC(=O)CN(C)C(=O)C2CC(=O)N(c3ccc4c(c3)OCCO4)C2)cc1 (centres undefined)	7.4%	.	0.8%	.
Cc1ccc(SCc2noc(-c3c(C)noc3C)n2)cc1	5.0%	5.0	0.5%	3.3%
N/C(=N\OC(=O)CCC1CCCC1)c1ccncc1	30.3%	6.4	1.2%	-15.1%
CCC/C=N/Nc1nnc(Cc2ccc(OC)c(OC)c2)c(=O)[nH]1	5.3%	.	-2.5%	-3.4%
C/C(=N/Nc1ccc(C)cc1)C1(C)N(O)C(C)(C)C(c2ccco2)=[N+]1[O-] (centres undefined)	8.0%	-0.8	4.2%	-20.5%
c1ccc(CSc2ccc(-c3cccs3)nn2)nc1	-4.6%	-4.0	0.1%	-56.2%

Part of the list above, limited to miR-21 FLuc.
compound	miR-21 FLuc
COc1ccc(Cc2nnc(SCc3nc4ccccc4c(=O)[nH]3)o2)cc1	-0.4%
O=C(O)c1ccc(/C=C/c2nc3ccccc3c(=O)[nH]2)cc1	-1.9%
O=[N+]([O-])c1ccc(O)c(C=Nc2cccc3ncccc23)c1	-4.5%
COc1ccc(-c2nn(CCC#N)cc2C=C(C#N)C#N)cc1	-7.0%
C/C=C/C=C/C(=O)Nc1nccs1	-21.6%

A second format for some results above:
| canonical_smiles | Rango release inh | GLA inh pH 4.5 | Rango-impB inh | miR-21 FLuc |
| --- | --- | --- | --- | --- |
| O=C(O)c1ccc(/C=C/c2nc3ccccc3c(=O)[nH]2)cc1 | 25.1% | . | 2.7% | -1.9% |
| O=C(CNC(=O)c1ccccc1Cl)NCC(c1cccs1)N1CCOCC1 (centres undefined) | -0.5% | . | 6.0% | . |

Source: PubChem BioAssay
